Bioassay records deposited in PubChem by Broad Institute.
FGF22 binding: shifts melting point of recombinant human FGF22; Q9HCT0; recombinant FGF22 thermal shift, SYPRO orange fluorescence; percent of sucrose octasulfate shift, DMSO zero; calls only at 9.99 µM; hit rate 1.5% among 340,000; AID 651658;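 active means melting point raised past a set limit in the mean and every replicate; inconclusive means no clear call; three in four hits are not shown here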
Target sequence (Q9HCT0 whole entry, looked up): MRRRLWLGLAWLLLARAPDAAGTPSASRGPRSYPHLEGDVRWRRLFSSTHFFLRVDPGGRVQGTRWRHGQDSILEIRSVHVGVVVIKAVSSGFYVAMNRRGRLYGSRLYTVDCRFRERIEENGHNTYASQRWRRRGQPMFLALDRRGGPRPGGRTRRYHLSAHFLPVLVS
Beta cell apopt: beta cell apoptosis inhibition; INS-1E cytokine-induced death, ATP luminescence, 48 h; percent of positive-control rescue, neutral wells zero; protection from apoptosis, % (concentration not given with the values); hit rate 0.8% among 300,000;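 active means all replicates at 75% or more, or half of them and the mean; inconclusive means half reach 75% but not the mean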;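 further: 0% = cytokine-treated negative control wells and 100% = positive control rescue; higher means more ATP so stronger rescue from cytokine killing; wells of about 40 µL received 100 nL stock; the first replicate is given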
Calb FLC: C. albicans growth modulation with fluconazole. AID 1979. growth inhibition, % (no concentration beside the values). C. albicans CaCi-2 (fluconazole-resistant clinical isolate) + fluconazole, Alamar Blue growth, 48 h. hit rate 0.57% among 300,000;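 active means most replicates above 75%; inconclusive means exactly half above 75%; inactive means most below 75%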;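 further: all wells also contain fluconazole at 8 µg/ml as a sub-toxic cotreatment; 0% = median of DMSO wells and 100% = median of geldanamycin control wells; wells of about 8 µL received 7.5 nL stock; the first replicate is given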
Ecoli rRNA inh: selective bacterial rRNA inhibition in E. coli; E. coli WT GFP vs humanized-ribosome RFP mutants, fluorescence, 24 h; active compounds read low; DMSO median 0, no signal -100; GFP signal change (wild-type ribosome), % (concentration not given with the values); hit rate 1.6% among 350,000;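 active means significant combined selectivity score with lowered wild-type GFP, culture density cut under 30%, mutant RFP and density less affected; inactive means any of these conditions unmet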; further: one replicate is shown; some compounds called inactive have numbers as strong as hits
MLL AF4-AF9 inh: blocks AF4 peptide binding to human AF9; P42568; AlphaScreen, biotin-AF4 peptide binding to FLAG-AF9; inhibition, % at 10 µM; hit rate 0.47% among 350,000; AID 651704;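 active means every replicate reaching a set inhibition limit, whatever the replicate mean, cut at about 25% in these data; inconclusive means mean inhibition reaches that limit but some replicates miss it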;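 further: 0% = plate neutral control median and 100% = total signal loss; the record names both 10 and 1 µM as test concentration; the first replicate is given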
Target sequence (P42568 whole entry, looked up): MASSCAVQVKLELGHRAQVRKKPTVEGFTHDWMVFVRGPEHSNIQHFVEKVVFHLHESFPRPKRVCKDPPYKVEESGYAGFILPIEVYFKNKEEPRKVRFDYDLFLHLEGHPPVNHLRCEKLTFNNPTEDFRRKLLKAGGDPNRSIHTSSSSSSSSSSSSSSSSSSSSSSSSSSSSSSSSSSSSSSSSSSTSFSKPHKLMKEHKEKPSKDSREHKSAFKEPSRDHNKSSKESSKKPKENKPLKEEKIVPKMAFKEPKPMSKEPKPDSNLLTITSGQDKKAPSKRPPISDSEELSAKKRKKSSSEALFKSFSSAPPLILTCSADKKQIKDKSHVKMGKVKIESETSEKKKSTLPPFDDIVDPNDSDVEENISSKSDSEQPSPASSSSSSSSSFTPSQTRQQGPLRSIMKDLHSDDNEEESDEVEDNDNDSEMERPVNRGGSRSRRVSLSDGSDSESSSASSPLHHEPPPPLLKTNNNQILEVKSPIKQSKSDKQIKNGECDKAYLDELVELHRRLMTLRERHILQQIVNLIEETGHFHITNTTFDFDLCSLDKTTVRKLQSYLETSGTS
ALR H2O2 inh: inhibitors of human sulfhydryl oxidase ALR. AID 485317. hit rate 3.8% among 290,000. inhibition, % (no concentration beside the values). P55789. purified ALR, DTT oxidation, H2O2 HRP-luminol luminescence;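 active means mean and each replicate at 75% or more; inconclusive means only one of the two met; inactive means neither met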;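 further: stock transfer was 7.5 nL into about 7.5 µL; 0% = neutral wells and 100% = wells with inactivated enzyme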
Target sequence (P55789 whole entry, looked up): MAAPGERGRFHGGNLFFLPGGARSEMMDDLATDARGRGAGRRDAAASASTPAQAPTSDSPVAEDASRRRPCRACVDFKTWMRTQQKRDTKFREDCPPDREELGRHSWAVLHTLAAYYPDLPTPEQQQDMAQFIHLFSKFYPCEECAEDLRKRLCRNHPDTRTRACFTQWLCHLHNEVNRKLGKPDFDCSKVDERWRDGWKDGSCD
T cruzi repl: blocks replication of Trypanosoma cruzi. T. cruzi beta-gal in NIH3T3, luminescence, 90 h. inhibition, % (concentration not given with the values). hit rate 1.4% among 300,000. AID 1885;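 active means mean inhibition across valid replicates above about 55%, limit read from the data; inconclusive means mean below that limit but half or more replicates reach it; inactive means mean below it, under half of replicates reach it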;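 further: signal also drops with host cell toxicity which is not excluded here; 0% = plate median of DMSO wells and 100% = zero luminescence signal; higher percent means less beta-gal luminescence so fewer parasites; stock transfer was 50 nL into about 50 µL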
RanGTP-Impb inh: disruptors of Ran-importin-beta complex formation – biochemical, FRET, CFP-Ran, YFP-importin-beta, homogeneous, primary screen; hit rate 1.1% among 300,000; AID 2216; cell-free CFP-Ran/YFP-importin-beta FRET ratio; inhibition, % (no concentration beside the values);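 active means most replicates above 15%; inconclusive means exactly half above 15%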;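 further: 0% = DMSO wells and 100% = Ran loaded with GDP instead of GTP; wells of about 40 µL received 100 nL stock; the first replicate is given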
Ecoli rRNA inh OD600: further read-out of Ecoli rRNA inh, marked with its call; OD600 change, %; measured here: OD600 growth;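 optical density of the mix in the first replicate; 0 = DMSO median and -100 = no signal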
Ecoli rRNA inh RFP: further read-out of Ecoli rRNA inh, marked with its call; RFP signal change, %; measured here: RFP humanized mutant strains;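 first replicate; 0 = DMSO median and -100 = no signal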
Numbers without * were called inactive; i = inactive; u = inconclusive; x = no result given. An excerpt, so the mix of outcomes need not match the whole.

Structure	FGF22 binding	Beta cell apopt	Calb FLC	Ecoli rRNA inh	Ecoli rRNA inh OD600	Ecoli rRNA inh RFP	MLL AF4-AF9 inh	ALR H2O2 inh	T cruzi repl	RanGTP-Impb inh
O=C(Nc1ncn[nH]1)C(F)(F)C(F)F	x	-3	-2	x	x	x	x	-4	-3	2.5
Cc1ccc(OCC(=O)Nc2cc(S(=O)(=O)N3CCCCC3)ccc2N2CCN(C)CC2)c(C)c1	i	11	-13	-42	-74	-1.2	0.7	-1	60*	u
CCCC(O)(CCC)C(=O)NN(C(=O)CCl)c1cccc(C)c1	i	-3	u	14	9	1.0	2.5	-4	-9	x
COc1ccc(-n2cnnc2SCC(=O)Nc2cccc([N+](=O)[O-])c2)cc1	i	-1	-3	-11	3	-1.0	-1.2	6	-9	0.0
C=CCc1ccccc1OCC(=O)N/N=C/c1ccccc1OCC	x	-3	-9	x	x	x	x	-8	9	0.8
CCOc1ccc(-c2nc(C#N)c(NCC(C)C)o2)cc1	x	4	-7	x	x	x	x	-2	2	2.9
COc1c(Cl)cc(Cl)cc1C(=O)Nc1ccc(C(=O)O)cc1	x	0	36	x	x	x	x	-6	-28	u
Cc1nc(-c2nnc(SCC(=O)Nc3ccc(C(F)(F)F)cc3)n2C)cs1	i	6	28	-2	9	-1.2	x	-8	-3	2.2
CC(C)c1ccc(/C=N/NC(=O)c2cccc(Cl)c2)cc1	x	12	3	x	x	x	x	x	9	0.0
Cc1ccccc1N(C(=O)CNC(=O)c1ccco1)C(C(=O)NC1CCCC1)c1ccncc1 (stereo not drawn)	i	-3	-8	8	4	-0.4	2.3	8	-2	1.1
Cc1ccccc1N1C(=O)c2ccccc2N2C(=O)c3ccccc3C12 (stereo not drawn)	x	2	-3	x	x	x	x	-1	13	4.6
COc1ccccc1/C=C1\SC(=O)N(CC(=O)N(C)C2CCS(=O)(=O)C2)C1=O (stereo not drawn)	i	-6	3	-2	-3	1.4	1.2	-12	9	-1.9
O=C(/C=C/c1cccc2ccccc12)NCCC1=CCCCC1	x	-3	0	x	x	x	x	-1	14	-1.5
CCc1c(C)nc2[nH]nc(NC(=O)C(F)(F)F)n2c1=O	i	-5	-10	0	-1	-3.2	-2.0	-2	-5	-2.1
CNC(=O)c1ccc2snnc2c1	i	-8	2	3	8	-3.8	3.4	13	-1	1.2
CCN1CCN(c2ncnc3sc4c(c23)CCC(C)C4)CC1 (stereo not drawn)	i	x	-11	-6	2	-3.7	2.7	1	29	7.2
CCOC(=O)C1=C(C(F)(F)F)Nc2ncnn2C1c1cccc(OC)c1OC (stereo not drawn)	i	-3	-6	x	x	x	-5.8	4	0	3.5
CCC1=C(OC(=O)N(CC)CC)N2C(=O)OC(=NCCc3c[nH]c4ccccc34)[C@]2(C)[C@H]2C1=CC[C@H]1C(=O)N(CC)C(=O)[C@H]12	i	4	-2	4	12	1.2	11	x	16	2.7
CNc1nc(NC)nc(-n2c(C(F)(F)F)nc3ccccc32)n1	x	-2	u	x	x	x	x	2	3	1.2
COc1ccccc1NC(=O)Nc1nnc(CC(=O)Nc2ccccc2)s1	i	-3	36	-20	-4	23	-3.2	-2	-22	-0.4
Cc1ccc(C(=O)NCCN2C3=NC[C@H](Cc4ccc(O)cc4)N3C[C@H]2Cc2ccc(O)cc2)cc1Br	i	0	5	-57	-80	-26	29*	x	-8	3.8
Cc1ccccc1NC(=O)NNC(=O)CCc1ccccc1	i	-5	-1	4	10	-0.5	-2.4	-14	4	-2.0
Cc1oc2ccc(O)cc2c1C(=O)c1ccc(Br)cc1	i	x	5	-23*	-18*	1.9*	2.4	1	0	1.6
Cc1ccc(C)c(S(=O)(=O)Nc2ccc(C(=O)N3CC(C)OC(C)C3)cc2)c1 (stereo not drawn)	i	2	x	-1	2	-3.3	-8.1	x	x	x
COc1ccc(Cl)cc1S(=O)(=O)NCc1ccncc1	i	-8	3	10	14	2.2	3.5	-5	-8	-1.2
CCOc1ccccc1-c1nc(CN2CCCN(C(=O)c3ccco3)CC2)c(C)o1	i	6	-4	6	5	2.6	4.6	-2	29	4.4
O=C(Cc1ccc(Br)cc1)N/N=C/c1cccnc1	i	-5	-8	-1	-7	-1.7	0.1	-2	2	0.3
Cc1cccn2c(=O)c(C=O)c(N3CCN(c4ccc(F)cc4)CC3)nc12	i	2	-4	7	4	2.0	1.5	67	6	8.6
Cc1ccc2c(c1)c1c(n2CC(O)Cn2c(C)nc3ccccc32)/C(=N\O)CCC1 (stereo not drawn)	x	1	-19	x	x	x	x	4	30	3.6
COc1cccc(OCCOc2ccccc2[N+](=O)[O-])c1	x	-11	-10	x	x	x	x	-9	-7	-2.5
NC(=O)c1ccsc1NC(=O)CS(=O)(=O)c1ccc(F)cc1	i	-4	x	9	8	2.3	-0.2	29	-6	u
Cc1nn(C)c(C(=O)Nc2ccn(C34CC5CC(CC(C5)C3)C4)n2)c1[N+](=O)[O-]	i	0	-5	-32*	-16*	-6.7*	13	-18	-17	-6.3
CCOC(=O)C1CCN(C(=O)c2ccccc2NS(=O)(=O)c2ccc(C)cc2)CC1	i	2	33	-1	-7	0.7	-2.4	-6	-26	1.1
Cc1cccc(C)c1NC(=O)C1CC2CCC1C2 (stereo not drawn)	i	x	-6	10	8	1.9	-3.7	x	2	4.4
Cc1csc(NC(=O)c2cnc3ccccc3n2)n1	i	-3	0	6	7	-2.4	-18	-14	0	0.0
COc1ccc(/C=N\NC(=S)SCN2C(=O)C3CCC(C)(C2=O)C3(C)C)cc1 (stereo not drawn)	x	1	-2	x	x	x	x	6	-13	-1.6
COc1cccc(/C=C/C(=O)NCc2ccc(S(N)(=O)=O)cc2)c1	i	-5	-5	-6	-6	-4.6	-4.5	x	-5	1.7
COc1ccc(C(=O)NC2CCCN(Cc3ccccc3F)C2)c(OC)c1OC (stereo not drawn)	i	-2	-10	-12	-13	0.4	-5.5	-7	-11	-2.5
CC1CC(C)CN(CC(=O)N2CCc3[nH]c4ccccc4c3C2)C1 (stereo not drawn)	x	-3	-11	x	x	x	x	-16	26	7.7
COc1ccc(C)cc1NC(=O)c1cnc2n(c1=O)CCS2	x	3	23	x	x	x	x	0	-4	6.4
Cc1cc(-c2n[nH]c(=S)n2/N=C/c2sccc2C)n[nH]1	x	-2	7	x	x	x	x	58	-4	-3.1
COc1ccc(N(C)C(=O)Cc2c(C(=O)O)n(C)c3ccccc23)c(OC)c1	i	0	9	16	11	2.2	1.8	-15	-3	-1.8
Nc1cc(=O)[nH]c(SCC(=O)N2CCN(S(=O)(=O)c3ccc4ccccc4c3)CC2)n1	i	-1	17	4	4	1.3	-1.5	-6	3	u
CC(=O)Oc1cc(C(C)C)c(OCCN(C)C)cc1C	i	-9	-28	x	x	x	1.6	x	6	-1.0
C=CCN=C1S/C(=C\N(C)C)C(=O)N1S(=O)(=O)c1ccc(C)cc1	i	6	x	5	10	-1.1	-12	-3	x	x
CCOc1ccc(NC(=O)CNc2cccc(S(=O)(=O)N3CCCCCC3)c2)cc1OCC	i	4	x	1	-26	6.7	-5.4	-13	x	x
O=C(OCc1cccc([N+](=O)[O-])c1)c1cc2ccccc2oc1=O	i	-3	0	16	12	-2.3	-6.9	-1	-3	-3.8
COC(=O)c1nnn(-c2nonc2N)c1-c1cccs1	x	-4	3	x	x	x	x	5	-12	0.4
Cn1c(N)c(C(=O)COC(=O)C2=COCCO2)c(=O)n(C)c1=O	x	-3	-1	x	x	x	x	0	-2	-0.5
O=C(NCc1ccc(OC(F)(F)F)cc1)C1CC(c2cccc(F)c2)=NO1 (stereo not drawn)	i	4	17	2	-5	3.2	-1.7	4	-6	0.3

New compounds follow.
Structure	FGF22 binding	Beta cell apopt	Calb FLC	Ecoli rRNA inh	Ecoli rRNA inh OD600	Ecoli rRNA inh RFP	MLL AF4-AF9 inh	ALR H2O2 inh	T cruzi repl	RanGTP-Impb inh
Cc1ccc(CCNC(=O)C2CCN(c3nn4c(=O)cc(C)nc4s3)CC2)cc1	x	1	-3	x	x	x	x	4	16	0.5
Cc1ccc(C)c(NC(=O)C(Sc2ncnc3ccccc23)c2ccccc2)c1 (stereo not drawn)	x	7	22	x	x	x	x	x	4	3.6
O=C(OCC(=O)c1ccc[nH]1)c1ccc(F)c(S(=O)(=O)N2CCOCC2)c1	i	-5	x	2	6	0.6	2.3	-4	x	x
CC(C)C(OC(=O)c1ccc(Cl)nc1)C(=O)NC1CCCCC1 (stereo not drawn)	i	-2	0	15	6	5.8	-4.8	-2	-6	-0.1
CN(C)CCCN(Cc1cc2cc3c(cc2[nH]c1=O)OCO3)C(=S)NCc1ccco1	i	-1	3	12	3	1.6	1.5	-33	-8	-4.9
O=[N+]([O-])c1nn(-c2ccc3c(c2)OCCO3)n(O)c1=Nc1ccc(Cl)cc1	i	-6	6	-10	15	-5.9	-1.5	-14	55*	-1.3
Cc1cccc(NC(=O)CCS(=O)(=O)c2ccc(Br)cc2)c1	i	1	2	3	10	-2.3	-2.2	x	-2	4.4
CCOc1ccc(CNS(=O)(=O)c2cc(CN3C(=O)c4cccnc4C3=O)ccc2OC)cc1	i	0	-12	4	11	-9.6	-13	-3	0	0.2
COc1cc(/C=C(/C(=O)c2cccs2)c2nc3ccccc3[nH]2)ccc1O	x	83*	3	x	x	x	x	u	-15	-0.6
COC(=O)c1ccccc1NC(=O)Nc1cccnc1	x	2	-2	x	x	x	x	10	-12	2.3
CC(C)(C)CC(C)(C)c1ccc(O)c(CN2CCN(CCC#N)CC2)c1	x	10	2	x	x	x	x	6	35	4.7
CCn1c(=S)sc2nc(C)sc21	x	x	-4	x	x	x	x	0	-6	5.4
COc1ccc(-c2nn(-c3ccccc3)cc2C(=O)NC(=S)NNC(=O)c2ccncc2)cc1	x	28	-5	-38	-53	-12	17	4	53	u
COc1cccc(C(=O)Nc2nnc(S(=O)(=O)Nc3cccc(C)c3)s2)c1	i	-4	0	-1	-62	-12	1.1	73	1	11
O=[N+]([O-])c1ccc(Oc2ccc(S(=O)(=O)Nc3ccccc3)cc2)cc1	x	3	-4	x	x	x	x	x	-20	-0.3
Cn1c(=O)c2ccccc2n(Cc2ccccc2Cl)c1=O	i	-4	16	17	15	-0.1	-33	-6	-3	6.6
Cc1cc(NC(=O)c2sc(Nc3cccc(C(F)(F)F)c3)nc2N)no1	x	6	-10	x	x	x	x	x	6	0.8
CCn1c(=O)c2cc(S(=O)(=O)NCCOc3ccccc3)ccc2n(CC)c1=O	x	-1	3	x	x	x	x	-3	-13	-1.8
c1ccc(-c2ccc(-c3cnc4n3CCCCC4)cc2)cc1	x	5	58	x	x	x	x	x	12	u
